# High-throughput results from PubChem.
# RmlCD inh 1536 – blocks M. tuberculosis RmlC and RmlD coupled enzymes. 160,000 tested, 0.03% active. inhibition, % at 3.6 µM. RmlC+RmlD coupled enzyme assay, percent inhibition; primary screen in compound mixtures; in the data active means inhibition mostly above about 34%, no sharp cut-off; only retested compounds are shown here; further: some results filed as inactive read as strong as hits
# Target sequence (P9WH09 whole entry, looked up): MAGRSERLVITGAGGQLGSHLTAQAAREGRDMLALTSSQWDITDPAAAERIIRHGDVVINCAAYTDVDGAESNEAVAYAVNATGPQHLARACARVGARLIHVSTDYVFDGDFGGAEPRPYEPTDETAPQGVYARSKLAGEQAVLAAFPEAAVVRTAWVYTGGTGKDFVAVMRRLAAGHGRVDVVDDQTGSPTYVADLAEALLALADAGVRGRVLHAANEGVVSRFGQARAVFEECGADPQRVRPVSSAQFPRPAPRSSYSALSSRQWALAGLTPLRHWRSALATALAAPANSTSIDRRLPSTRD
# Target sequence (P9WH11 whole entry, looked up): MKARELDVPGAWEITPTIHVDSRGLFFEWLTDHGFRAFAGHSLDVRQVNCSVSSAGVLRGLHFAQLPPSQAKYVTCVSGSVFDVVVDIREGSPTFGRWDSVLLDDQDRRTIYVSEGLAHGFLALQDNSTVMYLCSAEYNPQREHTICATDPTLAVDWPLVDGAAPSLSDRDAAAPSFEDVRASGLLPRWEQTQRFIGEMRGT
# RmlCD inh 1536 retest – recorded beside RmlCD inh 1536, whose call it bears; inhibition, %; measured here: mean retest inhibition;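 single compounds in two wells; values far above 100% likely come from compound fluorescence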
# An asterisk follows results filed as active. Only part of the results is shown (hit frequency here may not be typical).
Compound,RmlCD inh 1536,RmlCD inh 1536 retest
CCOC(=O)C(O)(c1ccc(N)c(OC)c1)C(F)(F)F (configuration not stated),108,-1
CCN(CC)S(=O)(=O)c1ccc(Cl)c(NC(=O)COC(=O)c2c(C)noc2C)c1,38,12
Cc1ccc(C(=O)N(CC(=O)NC2CCCCC2)c2ccccc2F)s1,53,-7
COc1ccccc1C1CC(c2ccc(NS(C)(=O)=O)cc2)=NN1C(=O)c1ccccc1 (configuration not stated),45,7
O=C1COc2ccc(-c3csc(NCCc4ccccc4)n3)cc2N1,55,8
O=[N+]([O-])c1ccc(C2Nc3cccc4cccc(c34)N2)cc1,61,10
COCCn1c(-c2cccc([N+](=O)[O-])c2)nc2c1c(=O)[nH]c(=O)n2Cc1ccccc1,98,9
COCCOC(=O)C1=C(C)NC2=C(C(=O)CC(C)(C)C2)C1c1cccnc1 (configuration not stated),62,20
CN(C)/C=N/NC(=O)c1ccccc1Cl,33,7
Cc1cccc(NC(=S)NCC2CCCO2)c1 (configuration not stated),66,2
Cc1cc(NC(=O)CCOc2ccc(F)cc2)no1,31,20
O=C(CC1C(=O)NCCN1Cc1ccc(Cl)c(F)c1)NCC1CCOCC1 (configuration not stated),78,-14
COC(=O)c1sc(-c2cccs2)cc1NC(=O)/C=C/C(=O)O,52,7
CCOC(=O)Cc1csc(NC(=O)Cc2ccc(Br)cc2)n1,68,-3
COc1cccc(Nc2nc3ccccc3n3nnnc23)c1,50,-23
CNc1nc2sc3c(c2c(=O)n1C)CC(C)(C)SC3,40,11
CC(/C=C/C=C/c1ccccc1)=N/NC(=O)C(O)c1ccccc1 (configuration not stated),60,-24
O=S(=O)(/N=C(/Nc1ccc(F)c(F)c1F)c1ccccc1)c1ccccc1,69,-21
O=C(Nc1ccc(O)cc1)/C(=C\C=C\c1ccccc1)NC(=O)c1ccccc1,79,5
CCCc1nnc(NC(=O)C(=O)NCCN(CC)CC)s1,89,-7

# Quoted from the listing for reference:
Compound,RmlCD inh 1536,RmlCD inh 1536 retest
CCOC(=O)C(O)(c1ccc(N)c(OC)c1)C(F)(F)F (configuration not stated),108,-1
CCN(CC)S(=O)(=O)c1ccc(Cl)c(NC(=O)COC(=O)c2c(C)noc2C)c1,38,12

# Next entries follow.
Compound,RmlCD inh 1536,RmlCD inh 1536 retest
Nc1n[nH]c(C2CC2)c1N=Nc1ccc(Cl)c(Cl)c1,49,-4
COc1ccc(/C(C)=N/NC(=O)CNC(=O)/C=C\c2ccco2)cc1,39,12
C=CCn1c(O)c(C=Nc2ccc(CN3CCCCC3)cc2)c(=O)[nH]c1=S,80,2
CC#CC[N+](C)(C)CCCCCC,38,15
O=C(OCC1CC(c2ccccc2Cl)=NO1)c1ccc(Br)cc1 (configuration not stated),44,7
CC(C)(C)SCCNS(=O)(=O)c1ccc(Cl)cc1,65,6
COC(=O)c1c(-c2c(Cl)cccc2Cl)noc1NC(=O)NN1CCCCC1,103,8
O=C(/C=C/c1ccc(Cl)cc1Cl)Nc1cccc(S(=O)(=O)NC2=NCCC2)c1,32,-15
O=c1oc2c(CN3CCOCC3)c(O)ccc2c2c1CCCC2,44*,110*
Cc1c(Cl)cccc1NC(=S)NCc1ccco1,41,0
NS(=O)(=O)c1ccc(N=Cc2c(O)n(-c3nccs3)c(=O)c3ccccc23)cc1,63,9
N#C/C(=C\c1ccccc1OCc1ccc(C(=O)O)cc1)c1ccccc1,63,-4
O=c1c(N2CCOCC2)c(N2CCOCC2)c1=O,78,-15
COCCn1c(-c2ccc(Br)cc2)csc1=Nc1cccnc1,33,-4
CCOC(=O)c1cc(CC)sc1NC(=O)c1ccc2c(c1)OCCO2,67,-48
CCOc1[nH]c(/N=C/c2ccco2)c(C#N)c1C#N,98,-3
COc1ccc(OC)c(S(=O)(=O)NCCOC23CC4CC(CC(C4)C2)C3)c1,31,-4
COC(=O)CSc1nc2c(c(=O)[nH]c(=O)n2C)n1CCC(C)C,90,-10
Nc1nnc(CC(=O)N/N=C/c2ccccc2OCc2ccccc2F)s1,49,-11
O=C(O)C1C2C=CC(C2)C1C(=O)NCc1ccoc1 (configuration not stated),39,7

# The list goes on.
# Every second line gives: RmlCD inh 1536	RmlCD inh 1536 retest
- CCCCn1c(O)c(C(CC)=NCCCn2ccnc2)c(=O)[nH]c1=O
    43	5
- COc1ccc(NS(=O)(=O)c2ccc(S(=O)(=O)N(C)C)cc2)cc1S(N)(=O)=O
    37	-7
- Cc1ccc(-c2nc3c(c(=O)[nH]c(=O)n3Cc3ccccc3)n2Cc2ccccc2)o1
    44	7
- COc1ccccc1NS(=O)(=O)c1cc(NC(=O)CNC(=O)c2ccccc2)ccc1C
    75	9
- COc1ccc(Cl)cc1NC(=S)NCCSc1ccc(C)cc1
    73	-11
- Cc1ccc(S(=O)(=O)N2CCCC2C(=O)NCCc2ccccc2)cc1 (configuration not stated)
    44	-7
- O/N=C1/C(=C\c2ccccc2)N2CCC1CC2
    53	9
- O=C(c1ccc(NS(=O)(=O)c2ccc3c(c2)OCCO3)cc1)N1CCCCC1
    82	3
- CN(Cc1ccccc1)C(=O)C1CCCN1S(=O)(=O)c1ccc2c(c1)n(C)c(=O)c(=O)n2C (configuration not stated)
    79	10
- Cc1nn(-c2ccc(F)cc2)c(Cl)c1/C=C/C(=O)OCC(=O)Nc1ccc(F)cc1F
    89	0
- O=C(O)CSc1nnc(-c2ccccc2)c(-c2ccccc2)n1
    110	-15
- COCCOc1ccc(C(F)(F)F)cc1NC(=O)c1ccc(C)cc1
    33	-3
- S=C(Nc1ccc(Br)cc1Cl)NC1CCN(Cc2ccccc2)CC1
    63	-10
- CCSc1nnc(NC(=O)[C@@H](NC(=O)c2ccccc2)C(C)C)s1
    55	5
- COc1ccc(NC(=O)CN2C(=O)C(C)SC(C)C2=O)cc1 (configuration not stated)
    56	0
- CC(Oc1ccc(Br)cc1)C(=O)Nn1c(=S)[nH]c2ncccc2c1=O (configuration not stated)
    106	13
- CCOc1ccc(/C(O)=C2/C(=O)C(=O)N(c3ncccn3)C2c2ccc(Cl)cc2)cc1 (configuration not stated)
    57	-6
- O=c1c2ccccc2[nH]c(=S)n1-c1cccc(S(=O)(=O)N2CCCC2)c1
    54	5
- CN(C)C=Nc1nonc1N
    65	-7
- CCCCCCCC[n+]1cccc(C(=O)N(CC)CC)c1
    51	5
- CCC(NS(=O)(=O)c1cn(C)nc1C)c1ccccc1 (configuration not stated)
    69	-15
- COc1ccccc1NC(CC(=O)c1ccccc1)C(=O)OCC(=O)c1ccc(C)c(C)c1 (configuration not stated)
    31	-3
- CC(C)CC(C(=O)Oc1ccc2c3c(c(=O)oc2c1)CCC3)N1C(=O)c2ccccc2C1=O (configuration not stated)
    55*	40*
- CC(C)Oc1ncnc2c1[nH]c1ccccc12
    36	4
- COc1ccc(-c2cc(C(=O)O)sc2C)cc1
    72	-7
- O=C(N/N=C/c1cccc([N+](=O)[O-])c1)C1CC(=O)N(c2ccc(Br)cc2)C1 (configuration not stated)
    55	1
- COCCNC(=O)c1c(C)cc(C)cc1C
    38	11
- CCOc1ccc2oc(C(=O)O)c(C)c2c1
    36	1
- Cn1nc(C(F)(F)F)c(-c2cccc(C(F)(F)F)c2)c1NC(=O)CSCC(=O)O
    56	-10
- COc1ccc(/C=N/n2cnc3c([nH]c4ccccc43)c2=O)cc1CO
    36	-7
- CN(Cc1ccccc1)CC(O)COc1ccc(CNCc2cccnc2)cc1 (configuration not stated)
    85	-2
- Cc1ccccc1NC(=O)CCN1CCc2ccccc2C1
    33	1
- Cc1cc(NC(=O)COC(=O)c2oc3c(ccc4ccccc43)c2C)no1
    54	3
- O=C(Cc1ccc(S(=O)(=O)N2CCCCC2)s1)Nc1cccc2ccccc12
    74	-6
- CSCCC(NC(C)=O)C(=O)OCC(=O)N(c1ccccc1)c1ccccc1 (configuration not stated)
    41	-4
- CCOc1ccc(C2CC(=O)N(Nc3ccc([N+](=O)[O-])cc3[N+](=O)[O-])C2=O)cc1 (configuration not stated)
    37	16
- O=C(c1ccc(CSc2ccccc2)cc1)N1CCN(c2ccccc2)CC1
    34	-11

# Some of these compounds in order of SMILES length, low to high.
# Every second line gives: RmlCD inh 1536	RmlCD inh 1536 retest
- CN(C)C=Nc1nonc1N
    65	-7
- COCCNC(=O)c1c(C)cc(C)cc1C
    38	11
- CCOc1ccc2oc(C(=O)O)c(C)c2c1
    36	1
- CC(C)Oc1ncnc2c1[nH]c1ccccc12
    36	4
- COc1ccc(-c2cc(C(=O)O)sc2C)cc1
    72	-7
- Cc1ccccc1NC(=O)CCN1CCc2ccccc2C1
    33	1
- CCCCCCCC[n+]1cccc(C(=O)N(CC)CC)c1
    51	5
- CCC(NS(=O)(=O)c1cn(C)nc1C)c1ccccc1 (configuration not stated)
    69	-15
- O=C(O)CSc1nnc(-c2ccccc2)c(-c2ccccc2)n1
    110	-15
- COc1ccc(NC(=O)CN2C(=O)C(C)SC(C)C2=O)cc1 (configuration not stated)
    56	0
- COCCOc1ccc(C(F)(F)F)cc1NC(=O)c1ccc(C)cc1
    33	-3
- CN(Cc1ccccc1)CC(O)COc1ccc(CNCc2cccnc2)cc1 (configuration not stated)
    85	-2
- O=C(c1ccc(CSc2ccccc2)cc1)N1CCN(c2ccccc2)CC1
    34	-11
- Cc1cc(NC(=O)COC(=O)c2oc3c(ccc4ccccc43)c2C)no1
    54	3
- CC(Oc1ccc(Br)cc1)C(=O)Nn1c(=S)[nH]c2ncccc2c1=O (configuration not stated)
    106	13
- O=C(Cc1ccc(S(=O)(=O)N2CCCCC2)s1)Nc1cccc2ccccc12
    74	-6
- O=C(c1ccc(NS(=O)(=O)c2ccc3c(c2)OCCO3)cc1)N1CCCCC1
    82	3
- O=c1c2ccccc2[nH]c(=S)n1-c1cccc(S(=O)(=O)N2CCCC2)c1
    54	5
- Cn1nc(C(F)(F)F)c(-c2cccc(C(F)(F)F)c2)c1NC(=O)CSCC(=O)O
    56	-10
- Cc1nn(-c2ccc(F)cc2)c(Cl)c1/C=C/C(=O)OCC(=O)Nc1ccc(F)cc1F
    89	0
- CCOc1ccc(/C(O)=C2/C(=O)C(=O)N(c3ncccn3)C2c2ccc(Cl)cc2)cc1 (configuration not stated)
    57	-6
- O=C(N/N=C/c1cccc([N+](=O)[O-])c1)C1CC(=O)N(c2ccc(Br)cc2)C1 (configuration not stated)
    55	1
- CC(C)CC(C(=O)Oc1ccc2c3c(c(=O)oc2c1)CCC3)N1C(=O)c2ccccc2C1=O (configuration not stated)
    55*	40*
- CN(Cc1ccccc1)C(=O)C1CCCN1S(=O)(=O)c1ccc2c(c1)n(C)c(=O)c(=O)n2C (configuration not stated)
    79	10
- CCOc1ccc(C2CC(=O)N(Nc3ccc([N+](=O)[O-])cc3[N+](=O)[O-])C2=O)cc1 (configuration not stated)
    37	16

# A few values from the entries so far:
# CN(Cc1ccccc1)CC(O)COc1ccc(CNCc2cccnc2)cc1 (configuration not stated) in RmlCD inh 1536 shows 85
# Cc1cc(NC(=O)COC(=O)c2oc3c(ccc4ccccc43)c2C)no1 in RmlCD inh 1536 retest shows 3
# O=C(c1ccc(CSc2ccccc2)cc1)N1CCN(c2ccccc2)CC1 in RmlCD inh 1536 retest shows -11
